From PubChem BioAssay
CtBP-E1A inh = CtBP/E1A binding inhibition. AlphaScreen GST-E1A/His-CtBP binding, 1536-well; hits give low values; control for the full effect not named in the record. activity change, % (test concentration not listed). 0.49% of 340,000 active; in the data active means activity change below about -65%; inconclusive means about -30% to -65%; inactive means above about -30%; also: % is scaled to controls: 0 for no effect and ±100 for the full control effect; compound concentration not given in the record
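GST-E1A and His-tagged CtBP (125 nM each as 5X stock) were preincubated with pin-transferred compound for 2 h at 37 °C in the dark, then glutathione donor and nickel acceptor beads were added for 1 h before AlphaScreen reading.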
ClpP mod = qHTS Assay for Activators of ClpP; 1.9% of 340,000 active; Potency, µM (top dose mostly 57.5 µM), for inactives: at the top dose activity change, negative = active; purified B. subtilis ClpP, FRET peptide cleavage, 20 min; active = well fitted falling curve with a large enough effect; inconclusive = small, poorly fitted or top-dose-only effect; inactive = no such curve, though single readings can be large or run the other way; also: potency is read from the fitted curve at half-maximal effect; the source files actives as falling curves though it sought activators and does not explain the sign; nearly all actives have a fitted effect of over 65% in size; many hits overshoot -100%
Target sequence (P80244 whole entry, looked up): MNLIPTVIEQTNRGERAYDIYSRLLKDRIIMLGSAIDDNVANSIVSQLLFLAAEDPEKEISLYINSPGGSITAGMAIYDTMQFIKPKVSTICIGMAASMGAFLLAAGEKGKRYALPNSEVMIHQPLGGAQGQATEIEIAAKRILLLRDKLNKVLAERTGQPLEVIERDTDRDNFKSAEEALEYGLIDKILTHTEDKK
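ClpP 10 microg/mL final, pH 8 Tris/KCl buffer with BSA, glycerol, Tween-20; compound pinned in; FRET-FV substrate; RT 20 min; Ex320/Em430; ΔFRET vs ADEP 5.8 microM, DMSO, no enzyme.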
* hit, by the source's call; ? = inconclusive.

SMILES | CtBP-E1A inh | ClpP mod
COc1ccc(OC)c(C(O)c2ncc(-c3ccccc3OC)[nH]2)c1 (stereo unspecified) | -5.9 | -0.8%
COC(=O)C(C(=O)OC)c1ccccc1CNS(=O)(=O)c1ccc(C)cc1 | -23.7 | -1.8%
CN1CCN(C(=O)c2ccc(-c3cnn(C)c3)c3ccoc23)CC1 | -10.8 | -21.8%
NCc1csc(NC(=O)Nc2cccc(C(F)(F)F)c2)n1 | -24.5 | -0.1%
COC(=O)/C=C1\OCc2cc(OCc3ccccc3)ccc21 | 6.8 | 0.9%
COC(=O)[C@@]12C[C@@H](CC(=O)NCC3CCCCC3)C(=O)N(Cc3cccc4ccccc34)C1=CCC(C)(C)C2 | -2.5 | 2.9%
C[C@@]12CC[C@@H](C3=C(CCC3)C1)N2c1ccccc1 | -0.9 | 0.4%
COc1ccc(CC(N)c2csc(NC(=O)C(c3ccccc3)c3ccccc3)n2)cc1 (stereo unspecified) | 0.0 | -3.6%
CCCCN(C=O)c1c(CC)nc2c(OCCn3cccc3)cccn12 | -0.3 | -1.3%
CNc1cccc(-c2cccc(C(=O)N3CCOCC3)c2)n1 | 0.4 | -10.2%
COc1ccc(NS(=O)CCCc2ccccc2)cc1 (stereo unspecified) | -8.1 | -0.9%
CC1(C(=O)Nc2ccc(Cl)c(C(F)(F)F)c2)Cc2c(-c3ccccc3)ccnc2O1 (stereo unspecified) | -8.1 | -18.5%
O=C(C[C@@H]1C=C[C@H](NS(=O)(=O)c2ccccc2F)[C@@H](CO)O1)NCCCN1CCOCC1 | 11.8 | 1.9%
COCCCNC(=O)c1cccc2c(-c3cccc(C(N)=O)c3)coc12 | -19.8 | ?
CN(C)c1ccc(C(=O)N2CCC2(C)C(=O)O)cc1 (stereo unspecified) | 12.2 | -3.2%
O=C(NC1CCCCC1)c1nc(-c2c(F)cccc2F)oc1-c1ccccc1 | 1.6 | 4.3%
Nc1[nH]c(C(=O)c2ccccc2)c(-c2ccc(Br)cc2)c1C(=O)c1cccs1 | 0.2 | 2.4%
Cc1ccc(NC(=O)c2ccc(-c3cc(Cl)ccc3Cl)o2)c(C)c1 | -5.8 | ?
COCCNc1ncnc2c1ncn2[C@H]1CN(Cc2ccc3c(c2)OCO3)C[C@@H](CO)O1 | 6.7 | 1.5%
O=C(NCCO)c1cccc(-c2cccc3nncn23)c1 | 0.0 | 5.3%

Fetched one by one from the entries so far (two):
SMILES | CtBP-E1A inh | ClpP mod
COCCCNC(=O)c1cccc2c(-c3cccc(C(N)=O)c3)coc12 | -19.8 | ?
C[C@@]12CC[C@@H](C3=C(CCC3)C1)N2c1ccccc1 | -0.9 | 0.4%

The results go on.
SMILES | CtBP-E1A inh | ClpP mod
CC(=O)C1=CCC(c2ccc(Br)cc2)N(S(=O)(=O)c2ccc(C)cc2)C1 (stereo unspecified) | 0.9 | 0.0%
COc1ccc(C(C)(O)c2nc(-c3cccc(C(F)(F)F)c3)cs2)cc1 (stereo unspecified) | 9.0 | 0.6%
COCCCN1C(=O)C(CC(=O)NCc2cccc3ccccc23)CC(C(=O)N(C(C)C)C(C)C)=C1C (stereo unspecified) | -20.5 | -5.6%
O=C(NC(c1ccccc1)c1ccc2ccccc2n1)C1CCN(Cc2cccc(C(F)(F)F)c2)CC1 (stereo unspecified) | -17.4 | -10.8%
CC(C)C[C@H]1CN([C@@H](CC(C)C)CN2CCCC2CN2C(=S)NC[C@@H]2Cc2ccccc2)C(=S)N1CC1CCCCC1 (stereo partly specified) | -1.6 | 1.4%
COc1ccc(NC(=O)c2cc(C3CCCCN3C(=O)c3ccc4c(c3)CCO4)on2)c(C)c1 (stereo unspecified) | -19.4 | -3.5%
O=C(NCC[C@H]1CC[C@H](NS(=O)(=O)c2ccccc2F)[C@@H](CO)O1)c1ccc(F)cc1 | -13.0 | 0.7%
FC(F)(F)c1cc(Cc2nc3ccccc3n2C(CCc2ccccc2)c2nc3ccccc3[nH]2)cc(C(F)(F)F)c1 (stereo unspecified) | 2.8 | 0.2%
O=C(NCc1ccncc1)[C@@H]1CCCN1C(=O)[C@H]1CCCN1C(=O)c1c(F)cccc1F | 4.3 | -3.4%
C[C@H]1CN([C@@H](C)CO)C(=O)CCCn2nncc2CO[C@H]1CN(C)C(=O)Nc1cccc2ccccc12 | 1.3 | -13.0%

The final 7 compounds of the section before lead into the next:
SMILES | CtBP-E1A inh | ClpP mod
O=C(NC(c1ccccc1)c1ccc2ccccc2n1)C1CCN(Cc2cccc(C(F)(F)F)c2)CC1 (stereo unspecified) | -17.4 | -10.8%
CC(C)C[C@H]1CN([C@@H](CC(C)C)CN2CCCC2CN2C(=S)NC[C@@H]2Cc2ccccc2)C(=S)N1CC1CCCCC1 (stereo partly specified) | -1.6 | 1.4%
COc1ccc(NC(=O)c2cc(C3CCCCN3C(=O)c3ccc4c(c3)CCO4)on2)c(C)c1 (stereo unspecified) | -19.4 | -3.5%
O=C(NCC[C@H]1CC[C@H](NS(=O)(=O)c2ccccc2F)[C@@H](CO)O1)c1ccc(F)cc1 | -13.0 | 0.7%
FC(F)(F)c1cc(Cc2nc3ccccc3n2C(CCc2ccccc2)c2nc3ccccc3[nH]2)cc(C(F)(F)F)c1 (stereo unspecified) | 2.8 | 0.2%
O=C(NCc1ccncc1)[C@@H]1CCCN1C(=O)[C@H]1CCCN1C(=O)c1c(F)cccc1F | 4.3 | -3.4%
C[C@H]1CN([C@@H](C)CO)C(=O)CCCn2nncc2CO[C@H]1CN(C)C(=O)Nc1cccc2ccccc12 | 1.3 | -13.0%
CCNC(=O)C1(C)CCCN(Cc2noc(-c3c(C)noc3C)n2)C1 (stereo unspecified) | -1.4 | -0.2%
CCN(C)C1CN(Cc2cn(Cc3ccc(F)cc3)nn2)S(=O)(=O)C1 (stereo unspecified) | 6.8 | 0.3%
CC1(C(=O)Nc2cccc3ncccc23)CCN1C(=O)C1(c2ccccc2)CC1 (stereo unspecified) | 1.4 | -1.2%
COc1cccc(C(C)(O)c2nc(-c3cnn(C)c3)cs2)c1 (stereo unspecified) | -9.8 | -6.9%
Cn1cc([C@]2(O)C(=O)Nc3ccccc32)c2ccccc21 | 10.0 | 0.2%
COCCCNc1ccn2nc(-c3ccc(Cl)cc3)cc2n1 | -0.8 | 5.1%
CCCCN(C=O)c1c(CC)nc2ccc(C(=O)N3CCN(c4ccccc4)CC3)cn12 | -6.8 | -8.0%
CCOc1ccc(Cl)cc1-c1cc(C(=O)Nc2ccc(Br)cc2)[nH]n1 | 0.0 | ?
CN(C)c1cccc(CNC(=O)c2csc([C@H]3C[C@H](O)[C@@H](CO)O3)n2)c1 | 5.3 | 0.1%
CCC(=O)N1Cc2cc(C(=O)N(C)C)nc(-c3cccc(-c4cncnc4)c3)c2[C@@H]1CCO | 1.5 | -0.1%
COc1cc(C(O)c2nc(-c3cccs3)cs2)ccc1F (stereo unspecified) | 2.6 | 0.5%
O=C(NCc1cccc(C(F)(F)F)c1)c1ccc2nc([C@@H]3O[C@H](CO)[C@@H](O)[C@H]3O)[nH]c2c1 | 0.3 | -2.0%
CSCCC(C(=O)NC1CCCC1)n1c(C2CC2)nc2ccccc21 (stereo unspecified) | -10.6 | -4.4%
COc1cccc(-c2csc(Nc3ccc(Oc4ccccc4)cc3)n2)c1 | -6.6 | -4.3%
COc1ccc(C(=O)c2[nH]c(N)c(C(N)=O)c2-c2ccc(OC)c(OC)c2)cc1 | 2.7 | -2.0%
CC(C)NC(=O)c1cc(C2CCCCN2S(=O)(=O)c2ccc(C#N)cc2)on1 (stereo unspecified) | 3.9 | 1.2%
C=Cc1ccc(Cn2c(C)c(C(=O)NCc3ccc4c(c3)OCCO4)sc2=O)cc1 | -3.7 | -1.8%
CCNC(=O)C1(C)CCCN(CC(=O)c2ccccc2OC)C1 (stereo unspecified) | -4.4 | -4.5%
c1ccc(CNc2c(C3CCNCC3)nc3scc(-c4ccccc4)n23)cc1 | 0.0 | -6.0%
COc1ccc(CNC(=O)Nc2ccc3c(c2)c(=O)n(C)n3Cc2cccc(C(F)(F)F)c2)cc1 | 0.5 | 4.6%
OC(c1ccccc1)c1nc(/C=C/c2ccccc2)cs1 (stereo unspecified) | 1.4 | -4.0%
Cc1c(COc2ccc3ccccc3c2)nnn1CC(=O)NS(=O)(=O)c1ccccc1C(F)(F)F | 2.5 | 2.2%
CC(=O)N1CCC(c2nc3ccccc3n2C(C)C(=O)NCc2ccccc2)CC1 (stereo unspecified) | 1.6 | 0.8%
COc1cc(N(C)C)ccc1[C@]1(O)C(=O)N(C)c2ccc(Br)cc21 | -10.8 | 0.6%
NC(Cc1ccc(C(F)(F)F)cc1)c1csc(Nc2ncccn2)n1 (stereo unspecified) | ? | -1.6%
COc1ccc2nc(C(c3ccc(C)cc3)n3c(-c4ccccc4Br)nc4ccccc43)[nH]c2c1 (stereo unspecified) | 0.4 | 5.9%
CC1(Cc2ccc(F)c(Cl)c2)C(=O)Nc2c(Cl)cccc21 (stereo unspecified) | 3.4 | 0.7%
CC(C)(C)c1cc(NC(=O)C2(C)CCN2C(=O)C2(c3ccccc3)CC2)no1 (stereo unspecified) | 4.7 | 0.0%
CC(=O)Nc1ccc(CN2C(=O)C(C)(C)ON=C2c2ccc(C(F)(F)F)cc2)cc1 | 6.8 | -0.2%
COc1ccc(Cl)cc1CC1(C)C(=O)Nc2c(Cl)cccc21 (stereo unspecified) | -12.9 | -3.7%
COC(=O)[C@]12CCCCC=C1N(Cc1cccc3ccccc13)C(=O)[C@H](CC(=O)N1CCC(c3ccccc3)CC1)C2 | -18.2 | -3.5%
O=C(c1ccco1)N1CCN(C(=O)c2ccco2)CC1 | 0.2 | -1.0%
O=C1c2ccccc2C(c2nc3ccccc3[nH]2)N1c1ccccc1 (stereo unspecified) | 2.7 | 1.8%
Cn1c(=O)c2cc(NC(=O)NCc3ccccc3)ccc2n1Cc1ccc(Cl)cc1 | 8.2 | 5.0%
CCOC(=O)C1(C)CCN1C(=O)c1ccccc1OC(F)(F)F (stereo unspecified) | 3.1 | 1.5%
CC1OC(COCc2ccccc2)Cc2[nH][nH]c(=O)c21 (stereo unspecified) | -2.9 | 1.4%
O=C(NCc1cc(Cl)cc(Cl)c1)c1ccc2sc([C@H]3C[C@H](O)[C@@H](CO)O3)nc2c1 | ? | -2.8%
OC[C@@H]1CN(Cc2ccc(Cl)cc2)C[C@H](n2cnc3c(N4CCN(c5ccccc5)CC4)ncnc32)O1 | -23.3 | ?
COc1ccc(C(O)c2ncc(-c3ccccc3OC)[nH]2)cc1F (stereo unspecified) | -20.5 | -7.8%
CCCCNC(=O)C1(C)CCN1C(=O)c1cncc(Br)c1 (stereo unspecified) | -1.7 | -1.2%
CCc1nc2ccc(C(=O)NCCN(C)C)cn2c1N(CC)CCOC | 8.6 | -1.4%
COC(=O)C1=CN(c2ccc(Oc3ccccc3)cc2)C(N)=C(C#N)C1c1ccccc1 (stereo unspecified) | 7.0 | -22.3%
OC(c1ccc(Cl)c(F)c1)c1ncc(-c2cccc(C(F)(F)F)c2)[nH]1 (stereo unspecified) | -6.0 | 1.9%
COc1ccc(-c2cc(CNc3nc4cc(-c5ccccc5C)sc4c(=O)n3C)on2)cc1 | -2.2 | ?
Cc1ccc(S(=O)(=O)N2C[C@H]3C(=O)C[C@@H](c4ccccc4)N(S(=O)(=O)c4cccc(C)c4)[C@H]3C[C@H]2c2ccccc2)cc1 | -2.9 | -0.4%
CC(=O)NC(c1cccc(F)c1)c1nc(-c2cccc(F)c2)cs1 (stereo unspecified) | 6.6 | -1.8%
O=C1NC[C@H](Cc2ccc(O)cc2)N(C[C@@H]2CCCN2C[C@H](Cc2ccccc2)N2C[C@H](Cc3ccc(O)cc3)N(CC3CCCCCC3)C(=O)C2=O)C1=O | -2.0 | 0.1%
CC(C)NC(=O)C1(C)CN(S(C)(=O)=O)CC(=O)N1CCc1ccccc1F (stereo unspecified) | 9.7 | -1.3%
O=C1NC[C@H](CCCCN2C[C@H](Cc3ccccc3)N(CCc3ccc(O)cc3)C(=O)C2=O)N(CC2CCCCC2)C1=O | -3.7 | 0.0%
CCOC(=O)[C@]12CCC=C1N(Cc1cccc3ccccc13)C(=O)[C@H](CC(=O)NCC13CC4CC(CC(C4)C1)C3)C2 | -0.9 | -2.0%
(list continues)
SMILES | CtBP-E1A inh | ClpP mod
Cc1ccsc1C(=O)N1CCC1(C)C(=O)NCC(C)(C)C (stereo unspecified) | 8.9 | -0.6%
CCOC(=O)C1CCCN(C(=O)c2cc(C)oc2C)CC1 (stereo unspecified) | 0.0 | 2.6%
CC(=O)C[C@@H]1OC2CCCCC2N1S(=O)(=O)c1ccc(C)cc1 (stereo partly specified) | 3.5 | 0.1%
OC(c1cc(Cl)cc(Cl)c1)c1ncc(-c2cccc(F)c2)[nH]1 (stereo unspecified) | ? | -4.5%
COC(=O)/C=C1\OCc2cc(OC)c(OC)cc21 | -3.4 | -1.9%
O=C(Nc1ccc(C(=O)N2CCCCC2)cc1)[C@H]1O[C@@H](n2ccc(=O)[nH]c2=O)[C@H](O)[C@@H]1O | 3.3 | -1.3%
CCNC(=O)C1CCCN(Cc2cc(-c3ccccc3)on2)CC1 (stereo unspecified) | 3.3 | -0.7%
COc1ccc(-c2cnc3c(NC(C)=O)cc(-c4cc(F)ccc4OC)cn23)cc1OC | -4.0 | -16.2%
COC(=O)[C@H](CC(C)C)NC(=O)CC[C@H]1O[C@@H](n2cc(C)c(=O)[nH]c2=O)C[C@@H]1O | 7.2 | -1.4%

This is a subset. The share of hits here may be higher or lower than overall.
